Marburg entry inh: Marburg virus entry inhibition; AID 540276; Marburg virus pseudotyped entry inhibition, cell reporter; control for the full effect not named in the record; about a third of the inactives were read at about 46 µM; actives 1.8% (n = 300,000); Potency, µM (series often up to 37.8 µM), without a hit: top-dose activity change, negative = inhibition, most hits filed as inhibitors; active = well fitted inhibition curve with a large enough effect; inconclusive = small, poorly fitted or top-dose-only effect, or effect the other way; inactive = flat fitted curve, though single readings scatter; tested in HEK293 cells; about a fifth of its hits are not listed in these tables; note: % is set by controls: 0 for no effect and ±100 for the full control effect; luciferase read-out
SARS PLP yeast: SARS-CoV PLP inhibition in yeast. AID 485353. S. cerevisiae expressing SARS-CoV PLpro, growth rescue; control for the full effect not named in the record. Potency, µM (doses to about 32.9 µM), for inactives: top-dose activity, positive = growth rescue. actives 0.19% (n = 330,000); note: 0% is about no effect; nearly all actives have a fitted effect of over 55% in size; growth read by luminescence after 48 h
Cruzain Triton: inhibitors of Trypanosoma cruzi cruzain with detergent. purified cruzain, Z-FR-AMC fluorescence, 0.01% Triton. Potency, µM, inactives show max response, negative = inhibition, actives largely listed as inhibitors. actives 0.43% (n = 200,000). P25779; active = well fitted curve in the direction sought with a large enough effect; inconclusive = small, poorly fitted or top-dose-only effect, or another doubt; inactive = no such curve, though single readings can be large; an effect the other way counts as inactive or inconclusive;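 note: plate controls were neutral wells for no effect and buffer without enzyme for full effect; nearly all actives have a fitted effect of over 40% in size; top concentration of the series not given in the record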
Target sequence (P25779 123-467 limits assumed): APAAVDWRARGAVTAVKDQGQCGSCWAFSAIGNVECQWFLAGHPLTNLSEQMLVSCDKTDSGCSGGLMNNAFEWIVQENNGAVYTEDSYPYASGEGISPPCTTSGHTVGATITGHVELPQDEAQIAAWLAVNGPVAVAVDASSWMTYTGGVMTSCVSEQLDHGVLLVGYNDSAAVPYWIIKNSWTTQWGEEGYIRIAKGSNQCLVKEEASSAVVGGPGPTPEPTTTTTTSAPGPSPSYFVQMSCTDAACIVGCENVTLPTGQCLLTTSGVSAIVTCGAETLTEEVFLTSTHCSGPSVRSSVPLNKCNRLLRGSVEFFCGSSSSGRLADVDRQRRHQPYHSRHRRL
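Read-out: AMC fluorescence (360 nm excitation, 450 nm emission), four reads over 2 min, first-to-third difference used. Conditions: cruzain 1.5 nM, Z-FR-AMC 2 uM, pH 5.5 acetate, 5 mM DTT, 0.01% Triton X-100.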
Cruzain inh noDet: blocks cruzain activity in detergent-free assay | purified cruzain, Z-FR-AMC fluorescence, no detergent | Potency, µM, inactives show max response, negative = inhibition, usual class: inhibitors | actives 2.3% (n = 200,000); active = well fitted curve in the direction sought with a large enough effect; inconclusive = small, poorly fitted or top-dose-only effect, or another doubt; inactive = no such curve, though single readings can be large; an effect the other way counts as inactive or inconclusive;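 note: plate controls were enzyme without inhibitor for no effect and buffer without enzyme for full effect; nearly all actives have a fitted effect of over 40% in size; top concentration of the series not given in the record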
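Purified cruzain at 1.5 nM, pre-incubated 15 min with compound at room temperature in 100 mM sodium acetate pH 5.5, 5 mM DTT, 0.00005% Triton X-100. Reaction started with 2 uM Z-FR-AMC; AMC fluorescence increase over 60 s gives rate.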
RE007 growth inh: less growth of the S. pombe RE007 Vpr strain; Potency, µM (highest dose often 92.2 µM), for the others: at the highest dose activity change, negative = less growth; actives 0.21% (n = 360,000); S. pombe RE007 Vpr strain, BacTiter-Glo ATP luminescence, 24 h; control for the full effect not named in the record; active = well fitted falling curve with a large enough effect; inconclusive = small, poorly fitted or top-dose-only effect; inactive = no such curve, though single readings can be large or run the other way;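 note: % is set by controls: 0 for no effect and ±100 for the full control effect; nearly all actives have a fitted effect of over 50% in size; the assay follows cell death caused by Vpr and the record does not say whether a fall means rescue or toxicity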
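Fission yeast RE007 carrying one integrated HIV-1 vpr copy, seeded at OD 0.01 in PMG+AL medium with 23 nL pinned compound. Grown 24 h at 30 degrees; viability read by BacTiter-Glo luminescence after 5 min.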
Lassa entry inh: blocks Lassa virus binding to or entry into cells. Lassa virus pseudotype entry inhibition, cell reporter; control for the full effect not named in the record. actives 1.2% (n = 300,000). AID 540256. Potency, µM (doses to about 37.9 µM), inactives show at the highest dose activity change, negative = inhibition, actives largely listed as inhibitors; active means well fitted inhibition curve with a large enough effect; inconclusive means small, poorly fitted or top-dose-only effect, or effect the other way; inactive means flat fitted curve, though single readings scatter; tested in HEK293 cells; note: % is set by controls: 0 for no effect and ±100 for the full control effect; nearly all actives have a fitted effect of over 50% in size; luciferase read-out
NS1 function inh: blocks influenza NS1 protein function; S. cerevisiae slowed by influenza A NS1, growth recovery by OD600; Potency, µM (doses to about 46.1 µM), without a hit: at the top dose activity, positive = more growth; actives 0.4% (n = 270,000); note: actives are rising curves; nearly all actives have a fitted effect of over 50% in size
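Compounds were scored for reversing the slow growth caused by influenza A NS1 in S. cerevisiae, measured by optical density at 600 nm. Assay medium contained 2% galactose at pH 6.0; NS1-free yeast of the same strain were the positive control.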
StopGo reporter: FMDV 2A StopGo reporter, luciferase signal; human cells with a luciferase reporter of 2A StopGo recoding; control for the full effect not named in the record; Potency, µM (doses to about 57.9 µM), without a hit: at the highest dose signal change, negative = less light; actives 1.2% (n = 410,000); active = well fitted falling curve with a large enough effect; inconclusive = small, poorly fitted or top-dose-only effect; inactive = no such curve, though single readings can be large or run the other way; tested in HEK293T cells; note: % is set by controls: 0 for no effect and ±100 for the full control effect; nearly all actives have a fitted effect of over 45% in size; luciferase light after 4 h
Active calls of the source: *; ? = inconclusive; · = no result given; & = joins results of further samples; [ ] = another dose, or the depositor's remark. Unless noted, calls come from the whole dose curve; as a rule, active means well fitted rising curve with a large enough effect; inconclusive means small, poorly fitted or top-dose-only effect; inactive means no such curve, though single readings can be large or run the other way. Potency is the fitted concentration of half-maximal effect.

SMILES	Marburg entry inh	SARS PLP yeast	Cruzain Triton	Cruzain inh noDet	RE007 growth inh	Lassa entry inh	NS1 function inh	StopGo reporter
O=C(Nc1ccc(N2CCOCC2)cc1)c1ccc(S(=O)(=O)NCc2ccco2)cc1	15.4%[46.1 µM]	0.0%	·	·	22.1%	27.6%	4.6%	2.1%
O=C(CSc1nnc(COc2cccc3cccnc23)o1)N1CCCC1	12.4%[46.1 µM]	-0.4%	·	·	0.4%	?	-0.2%	-1.5%
Fc1ccc(-c2nc(Nc3cccc(C(F)(F)F)c3)nc3c2COc2ccccc2-3)cc1	?	·	-5.0%	?	·	?	·	-3.5%
COc1ccccc1N1CCN(C(=O)c2ccc3c(c2)N(Cc2cc(C)ccc2C)C(=O)c2ccccc2S3(=O)=O)CC1	?	·	1.4%	?	·	?	·	-4.1%
O=C(CSc1nnc(-c2ccncc2)n1Cc1ccco1)OC1CCCCC1	-0.6%	0.0%	-1.1%	-6.3%	-2.6%	-1.2%	-1.3%	?
COC(=O)c1cc(NC(=O)c2ccc3c(c2)NC(=O)c2ccccc2S3)cc(C(=O)OC)c1	8.7%[46.1 µM]	-5.1%	-2.2%	-14.1%	·	·	·	7.4%
COc1ccc(CCNC(=O)CCS(=O)(=O)c2ccc3c(c2)NC(=O)C(C)S3)cc1OC (stereo unspecified)	·	-12.6%	·	·	5.5%	·	12.4%	-15.0%
O=C(COC(=O)CN1C(=O)NC2(CCCC2)C1=O)Nc1c(Cl)cccc1C(F)(F)F	23.3%	-1.9%	·	·	-12.4%	11.1%	·	-12.6%
Cc1cc(CNC(=O)COC(=O)Cn2[nH]c(=O)c3ccccc3c2=O)cc(C)c1O	-1.5%	1.3%	·	·	2.4%	-4.3%	·	-9.3%
CC1Cc2ccccc2N1C(=O)CN1CCN(Cc2ccccc2)CC1 (stereo unspecified)	·	-0.2%	·	·	-3.9%	·	8.5%	-14.3%
NC(=O)C1(N2CCCCC2)CCN(c2ccc3nnc(-c4ccccc4)n3n2)CC1	·	5.6%	-3.0%	-9.1%	-1.3%	·	-22.4%	-13.4%
CCOC(=O)c1ccccc1NC(=O)COc1coc(CN2CCc3ccccc32)cc1=O	?	-4.0%	·	·	-12.5%	-20.3%	·	-25.9%
CN1C(=O)C2(c3ccccc31)N(C)CC(c1ccccn1)C21SC(=S)N(Cc2ccco2)C1=O (stereo unspecified)	?	-14.4%	2.7%	?	-20.2%	-0.2%	-70.2%	?
CCC(C)(C)n1nnnc1CN(Cc1cc2cc(OC)c(OC)cc2[nH]c1=O)C1CCCC1	4.9%&4.9%	12.1%	-12.4%	15.5%	17.7%	9.2%	6.4%	-10.8%
COc1ccc(CNC(=O)COC(=O)/C=C/c2cccc(Br)c2)cc1OC	-22.1%[46.1 µM]	-1.4%	·	·	-11.1%	6.1%[46.1 µM]	·	-5.5%
Cc1ccc(-n2c(CNc3cccc(Cl)c3)n[nH]c2=S)cc1	·	-1.1%	·	·	-12.8%	-10.7%	·	-8.2%
COc1ccc(C(=O)Nc2ccc(-c3nnn(CC(=O)N4CCN(C(=O)c5ccco5)CC4)n3)cc2)cc1	·	-0.2%	·	·	12.5%	·	1.0%	-10.1%
Cc1ccc(N=C2SC(C(=O)NCCc3ccccc3)CC(=O)N2C)cc1C (stereo unspecified)	5.3%[46.1 µM]	-0.5%	·	·	-0.7%	?	-6.9%	-5.5%
Cc1ccc(CCNC(=O)NC(C)(C)C)cc1	6.4%	3.4%	-1.2%	10.4%	0.6%	?	-3.1%	47.9%[activator]
CCCNC(=O)c1cnc2c(-c3ccc(OCC)c(OCC)c3)c(C)nn2c1-c1ccccc1	·	·	-1.8%	-4.6%	·	5.5%[46.1 µM]	·	?
CCOc1ccc2[nH]c(=O)c(CN(Cc3ccccc3OC)C(=O)c3ccccc3)cc2c1	?	-0.6%	-8.3%	2.5%	2.8%	?	1.0%	13.9%
O=C(Nc1c(C(=O)N2CCN(c3ccc(F)cc3)CC2)oc2ccccc12)c1c(F)cccc1F	·	·	-4.3%	4.1%	·	0.2%[46.1 µM]	·	2.4%
CCOC(=O)c1sc(=S)n(Cc2ccccc2)c1N	-18.8%[46.1 µM]	-42.9%	-8.6%	-6.2%	3.6%	12.9%	-125.1%	-6.9%
Clc1ccc(-c2noc(CCCc3ccccc3)n2)cc1	-17.2%	4.2%	-5.0%	-1.5%	5.8%[3.69 µM]	0.8%	2.8%	28.6%
Cc1ccc(C)c(OCCn2nnc3ccccc32)c1	·	2.9%	·	·	?	·	-34.3%	10.6%

Sorted by molecular weight (low to high): part of the list above
SMILES	Marburg entry inh	SARS PLP yeast	Cruzain Triton	Cruzain inh noDet	RE007 growth inh	Lassa entry inh	NS1 function inh	StopGo reporter
CCOC(=O)c1ccccc1NC(=O)COc1coc(CN2CCc3ccccc32)cc1=O	?	-4.0%	·	·	-12.5%	-20.3%	·	-25.9%
COC(=O)c1cc(NC(=O)c2ccc3c(c2)NC(=O)c2ccccc2S3)cc(C(=O)OC)c1	8.7%[46.1 µM]	-5.1%	-2.2%	-14.1%	·	·	·	7.4%
COc1ccc(C(=O)Nc2ccc(-c3nnn(CC(=O)N4CCN(C(=O)c5ccco5)CC4)n3)cc2)cc1	·	-0.2%	·	·	12.5%	·	1.0%	-10.1%

Next structures
SMILES	Marburg entry inh	SARS PLP yeast	Cruzain Triton	Cruzain inh noDet	RE007 growth inh	Lassa entry inh	NS1 function inh	StopGo reporter
Cc1oc(C(C)(C)C)cc1C(=O)Nc1ccc(C(=O)O)cc1	?	-2.0%	-0.8%	9.8%	12.2%	?	-111.6%	93.7%[activator]
O=C(/C=C/c1cc([N+](=O)[O-])ccc1OC(F)F)Nc1ccc(OC(F)F)cc1	?	-0.1%	·	·	-6.4%	?	-1.1%	-0.7%
O=C(Nc1nnc(SCc2ccc(Cl)cc2)s1)C1CCCO1 (stereo unspecified)	14.5%	-17.4%	6.4%	-3.6%	-20.9%	-4.2%	-15.1%	3.4%
Cc1cc(C)nc(N2CCC(C(=O)NCc3ccccc3)CC2)n1	-8.0%[46.1 µM]	-6.8%	1.2%	-6.8%	12.8%	4.2%	10.6%	4.6%
Cc1cccc(N2CCN(C(=O)CC(NC(=O)c3ccccc3Cl)c3ccccc3)CC2)c1C (stereo unspecified)	11.6µM*	-18.9%	-4.3%	5.0%	-22.6%	?	14.5%	-9.7%
COc1ccc(/C=C/C(=O)N2CCN(c3ccccn3)CC2)cc1OC	0.1%[46.1 µM]	-1.0%	·	·	-2.3%	-17.7%[46.1 µM]	-15.0%	-16.3%
Cc1oc2ncn(CC(C)C)c(=O)c2c1C(=O)Nc1cc(F)ccc1F	·	·	-0.6%	-19.4%	·	-7.2%[46.1 µM]	·	2.5%
O=C(CN(C(=O)c1csnn1)c1cccc2c1CCCC2)NC1CCCC1	-13.1%[46.1 µM]	0.0%	·	·	-11.9%	4.8%	-3.5%	-1.4%
CCN1CCN(c2cc(C)c3cc(NC(=O)c4cccs4)ccc3n2)CC1	?	-0.6%	·	·	-6.0%	-51.9%	1.4%	15.0%
COc1ccc(C(=O)CCN2CCc3cc(OC)c(OC)cc3C2)cc1	?	-1.8%	·	·	25.1µM*	9.0%	-31.6%	?
CCN(c1ccccc1)S(=O)(=O)c1ccc(C(=O)OC(C)C(=O)NCCC2=CCCCC2)cc1 (stereo unspecified)	-26.2%	-19.2%	-5.2%	14.5%	-6.7%	?	16.8%	1.4%
CC1CC(C)CN(C(=O)c2cc3cc(Br)cc(Br)c3o2)C1 (stereo unspecified)	?	-1.9%	·	·	27.8%	·	·	5.5%
COc1ccc(N(CC(=O)N/N=C/c2ccc(-c3ccc([N+](=O)[O-])cc3)o2)S(=O)(=O)c2ccc(C)cc2)cc1	?	15.5%	-0.3%	3.98µM*	1.9%	-14.1%	-6.9%	-12.9%
O=C(NC1CCCCCC1)c1ccc(CS(=O)Cc2cccc(Cl)c2)o1 (stereo unspecified)	·	18.4%	·	·	19.7%	·	-8.8%	-1.0%
COC(=O)c1ccc(C2C(C(=O)OCC(C)C)=C(C)N=C3SCCC(=O)N32)cc1 (stereo unspecified)	-1.7%	1.2%	-12.9%	?	-1.9%	?	-35.5%	?
Cc1ccc(-n2c(/C=C/c3ccccc3)nc3ccccc3c2=O)cc1Cl	·	·	1.3%	-2.6%	·	19.2%[46.1 µM]	·	-5.2%
Oc1ccc2ccccc2c1/C=N/c1nc2c(s1)CCCC2	2.4%	2.5%	-5.6%	-3.1%	?	?	-0.9%	-24.0%
COc1ccc(Cl)cc1C(=O)NCc1nc(-c2cccc(C)c2)no1	?	·	-8.0%	3.7%	·	-2.2%[46.1 µM]	·	-11.6%
COc1ccc(/C=C/C(=O)O)cc1S(=O)(=O)N1CCc2ccccc21	?	1.6%	·	·	18.2%	-2.8%	-9.1%	-4.1%
CC(=O)N(C)c1ccc(NC(=O)Nc2ccccc2C)cc1	?	1.9%	·	·	1.8%	16.8%[46.1 µM]	·	44.2%[activator]

Structures listed so far with a nitro group on carbon:
SMILES	Marburg entry inh	SARS PLP yeast	Cruzain Triton	Cruzain inh noDet	RE007 growth inh	Lassa entry inh	NS1 function inh	StopGo reporter
O=C(/C=C/c1cc([N+](=O)[O-])ccc1OC(F)F)Nc1ccc(OC(F)F)cc1	?	-0.1%	·	·	-6.4%	?	-1.1%	-0.7%
COc1ccc(N(CC(=O)N/N=C/c2ccc(-c3ccc([N+](=O)[O-])cc3)o2)S(=O)(=O)c2ccc(C)cc2)cc1	?	15.5%	-0.3%	3.98µM*	1.9%	-14.1%	-6.9%	-12.9%

Limited to Lassa entry inh, Cruzain inh noDet and NS1 function inh, for some of the entries so far:
Molecule | Lassa entry inh | Cruzain inh noDet | NS1 function inh
COC(=O)c1ccc(C2C(C(=O)OCC(C)C)=C(C)N=C3SCCC(=O)N32)cc1 (stereo unspecified) | ? | ? | -35.5%
Cc1ccc(-n2c(/C=C/c3ccccc3)nc3ccccc3c2=O)cc1Cl | 19.2%[46.1 µM] | -2.6% | ·
Oc1ccc2ccccc2c1/C=N/c1nc2c(s1)CCCC2 | ? | -3.1% | -0.9%

Assay outcomes: PubChem, National Center for Advancing Translational Sciences (NCATS)
